Compound activity as filed in PubChem BioAssay.
gsp antagonist: gsp mutant antagonism. gsp-mutant cells, cAMP HTRF, 30 min; control for the full effect not named in the record. Potency, µM (top dose mostly 76.9 µM), inactives show top-dose activity change, negative = inhibition, most hits filed as inhibitors. 340,000 tested, 0.4% active; active = falling curve of any shape with a large fitted effect; inconclusive = falling curve, mostly with a smaller effect; inactive = flat or rising curve; cell line not stated here;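 note: intracellular cAMP measured with PDE inhibitor Ro 20-1724 present during compound exposure; potency is the fitted concentration of half-maximal effect; % is set by controls: 0 for no effect and ±100 for the full control effect; nearly all actives have a fitted effect of over 65% in size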
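Measurement of cellular cAMP by homogeneous time-resolved fluorescence following a 30 min compound exposure at 37C. The PDE inhibitor […] was present throughout; the assay buffer was DPBS with 0.05% BSA and 0.005% Tween 20.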
Menin MLL FP FL: menin-MLL binding inhibition, fluorescein peptide | Fluorescence polarization, fluorescein-MLL peptide displacement from menin | FP activity change, % at 61.4 µM | 290,000 tested, under 10 active; inconclusive = falling polarisation curve, or a change in total fluorescence; inactive = total fluorescence flat and polarisation flat or rising; no compound was filed as active; the % refers to the polarisation; negative = inhibition;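 note: % of control where 0% means no effect; inhibitors lower the polarisation; unlabelled MLL peptide was the positive control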
gsp agonist: gsp mutant agonism; gsp mutant cells, cAMP HTRF, 30 min; control for the full effect not named in the record; Potency, µM (highest dose often 76.9 µM), without a hit: at the highest dose activation (cAMP increase), hits mostly activators; 340,000 tested, 0.13% active; active = well fitted activation curve with a large enough effect; inconclusive = small, poorly fitted or top-dose-only effect, or another doubt; inactive = no such curve, though single readings can be large or run the other way; cell line not stated here;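 note: phosphodiesterase inhibitor Ro 20-1724 added with compounds to block cAMP breakdown; potency is the fitted concentration of half-maximal effect; nearly all actives have a fitted effect of over 60% in size; about a fifth of the inactives were tested at one dose only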
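Cells in DMEM/10% FBS with G418 were pretreated with compounds in DMSO plus […] (300 uM stock) for 30 min at 37C. cAMP was measured by HTRF (cAMP-d2 plus anti-cAMP antibody-K) after 30 min at room temperature.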
TRPML1 blocker: inhibitors of human TRPML1 channel. Q9GZU1. TRPML1-inducible cells, Ca2+ dye fluorescence, FDSS; stronger effect = lower value; inhibition of EC80 agonist-evoked calcium signal. activity change, negative = inhibition, % (no concentration beside the values). 390,000 tested, 0.02% active; in the data active means activity change below about -50%; inconclusive means about -30% to -50%; inactive means above about -30%;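 note: stimulus is agonist 54-4 at its EC80 concentration; % is set by controls: 0 for no effect and ±100 for the full control effect; compound concentration not given in the record; the text of the record puts the active cut at -80%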
Target sequence (Q9GZU1 whole entry, looked up): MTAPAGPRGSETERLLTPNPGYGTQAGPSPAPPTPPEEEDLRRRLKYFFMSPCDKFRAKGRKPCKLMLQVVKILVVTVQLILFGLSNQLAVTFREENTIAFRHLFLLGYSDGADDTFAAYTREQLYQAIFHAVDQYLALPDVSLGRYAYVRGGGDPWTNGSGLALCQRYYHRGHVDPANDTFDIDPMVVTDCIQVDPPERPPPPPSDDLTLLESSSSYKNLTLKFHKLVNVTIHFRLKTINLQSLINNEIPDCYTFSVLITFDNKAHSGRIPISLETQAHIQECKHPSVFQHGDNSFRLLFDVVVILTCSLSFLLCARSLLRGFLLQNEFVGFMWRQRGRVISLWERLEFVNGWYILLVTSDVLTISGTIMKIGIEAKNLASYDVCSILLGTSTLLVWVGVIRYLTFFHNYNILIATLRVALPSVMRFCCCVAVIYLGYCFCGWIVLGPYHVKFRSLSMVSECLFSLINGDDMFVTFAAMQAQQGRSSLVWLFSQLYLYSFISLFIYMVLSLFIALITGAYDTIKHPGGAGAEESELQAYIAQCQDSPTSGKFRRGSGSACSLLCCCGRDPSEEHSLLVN
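Calcium fluorescence in TRPML1-DL cells induced overnight with Tet: a 110 s read after compound pin addition, then a 110 s antagonist read after challenge with 54-4 at 4 uM final (EC80).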
ClpP mod: qHTS Assay for Activators of ClpP; ATP-dependent Clp protease proteolytic subunit (Bacillus subtilis (strain 168)), P80244; purified B. subtilis ClpP, FRET peptide cleavage, 20 min; Potency, µM (doses to about 57.5 µM), without a hit: at the highest dose activity change, negative = active; 340,000 tested, 1.9% active; AID 651965, 2013; active = well fitted falling curve with a large enough effect; inconclusive = small, poorly fitted or top-dose-only effect; inactive = no such curve, though single readings can be large or run the other way; note: potency is the fitted concentration of half-maximal effect; the source files actives as falling curves though it sought activators and does not explain the sign; nearly all actives have a fitted effect of over 65% in size; many hits overshoot -100%
Target sequence (P80244 whole entry, looked up): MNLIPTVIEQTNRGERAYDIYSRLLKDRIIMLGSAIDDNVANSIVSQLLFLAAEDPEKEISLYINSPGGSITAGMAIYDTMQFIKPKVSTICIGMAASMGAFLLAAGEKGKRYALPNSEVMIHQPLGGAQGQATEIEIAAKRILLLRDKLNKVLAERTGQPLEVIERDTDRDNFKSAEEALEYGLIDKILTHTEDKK
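FRET quenching reversal measured ClpP activation: 10 microg/mL B. subtilis ClpP at pH 8 with the FRET-FV decapeptide, read at 430 nm after 320 nm excitation. The 20-min minus 0-min signal was scaled between DMSO/no-enzyme wells and ADEP (5.8 microM final).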
TRPML1 agonist: agonists of human TRPML1 channel; TRPML1-expressing cells, Ca2+ dye fluorescence, FDSS; host cell line not named in the record; reference of the full effect not given here; activation, % (no concentration beside the values); 410,000 tested, 0.12% active; in the data active = activation above about 50%; inconclusive = about 30% to 50%; inactive = below about 30%; note: 0% is about no effect; the text of the record puts the active cut at 80%
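Cells: TRPML1-DL, 1X Tet inducer, ~16 h at 37 degrees C/5% CO2. Dye: ABD Ca8 no-wash + quencher, 45-90 min RT. Read: 10 s baseline, compound add, 110 s agonist phase; 54-4 EC80 (4uM final), 110 s antagonist phase.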
Active calls of the source: *; ? = inconclusive; / = no result given; & = joins results of further samples; [ ] = dose if it differs, or a comment. The order is random; about 2.1% have a hit in one of these screens.

SMILES	gsp antagonist	Menin MLL FP FL	gsp agonist	TRPML1 blocker	ClpP mod	TRPML1 agonist
COCCN1CC(=O)N2C(c3cccc(OC)c3)c3[nH]c4ccccc4c3C[C@H]2C1=O (some centres not stated)	-4%	-5.9	9%[15.4 µM]	16	-2.0%	3.3
CSc1nc2c(C)c(C)c(C)c(C)c2[nH]1	5%	0.1	-4%[15.4 µM]	-6	-0.9%	-0.3
O=C1c2oc3ccccc3c(=O)c2C(c2ccc(Br)cc2)N1c1ccccn1 (configuration not stated)	/	/	/	-4	-3.3%	0.3
CCCCc1ccc(NC2=NCC(=O)N2CCc2ccccc2)cc1	-20%	3.5	19%[15.4 µM]	-8	-2.9%	0.0
Cc1ccc(C(=O)c2cc(C)sc2N)cc1	-13%	-0.9	-1%[15.4 µM]	-4	/	2.9
CCCC(CCC)C(=O)NCCN1CCOCC1	1%[15.4 µM]	1.8	15%	-15	-2.9%	0.7
COc1cc(/C=N/NC(=O)C(=O)NCC2CCCO2)ccc1OCC(=O)N1CCOCC1 (configuration not stated)	10%	0.3	-7%[15.4 µM]	19	/	-0.6
CC(C)OC(=O)C(C#N)c1nc2ccccc2nc1N1CCN(Cc2ccccc2)CC1 (configuration not stated)	4%	?	-5%	12	-3.6%	-0.4
O=C(Nc1ccccc1-c1nc2ccccc2[nH]1)c1ccc(S(=O)(=O)N2CCCCC2)cc1	-17%	3.7	4%	-3	?	0.8
O=S(=O)(Nc1cccnc1)c1cccc(Cl)c1	7%	3.4	-26%	-7	2.6%	0.5
O=C(CN(c1ccc(Cl)cc1)S(=O)(=O)c1ccccc1)N1CCN(c2ccccc2)CC1	-8%	-1.9	6%	4	1.1%	-0.4
Cc1cc(N(C)NC(=S)Nc2ccccc2)nc(C)n1	17%	4.9	-11%	-12	?	0.8
CCOc1ccccc1NC(=O)CCNS(=O)(=O)c1cccc2nonc12	-3%	3.3	-2%[15.4 µM]	-9&2	-3.2%	-0.5&-0.1
Cc1nn(S(=O)(=O)c2ccccc2)c(C)c1Sc1ccc([N+](=O)[O-])cc1	7%	0.2	-47%[inhibitor]	-8	-0.3%	-0.3
C[C@@H]1CN([C@H](C)CO)S(=O)(=O)c2ccc(Br)cc2O[C@H]1CN(C)C(=O)C1CC1	/	/	-1%	35	0.2%	0.1
COCCN=C1Sc2nc3ccc(C)cc3cc2CN1Cc1cccs1	-31%	0.3	-2%[15.4 µM]	5	/	2.1
CN(C(=O)c1ccc(NC(=O)Cc2cccc(NC(=O)C3CCN(C(=O)C4CCCC4)CC3)c2)cc1)C1CCCC1	6%	/	/	32	1.2%	0.3
Cc1ccc(N2CCN(S(=O)(=O)c3nnc(NC(=O)c4cccc(F)c4)s3)CC2)cc1	/	/	/	9	0.2%	-0.3
CCN(CC)c1cc(C)c2cc(NC(=O)c3cccc(OC)c3OC)ccc2n1	/	/	/	-15	-4.6%	1.7
Cc1coc(C)c1C(=O)Nc1ccc2ccccc2c1	-5%	-1.1	-7%	3	-3.1%	-0.4
Cc1ccc(S(=O)(=O)N2CCC(C(=O)OCC(=O)NC3(C#N)CCCCC3)CC2)cc1C	2%	/	-36%[inhibitor]	-6	-19%	-0.9
COc1ccc(Nc2ncnc3sc(C)cc23)c(OC)c1	2%	1.9	11%[15.4 µM]	-1	0.0%	-0.6
COCCCC/C(=N\OCCN)c1ccc(C(F)(F)F)cc1	1%&15%&6%&6%&10%	-1.6&5.1&-0.2&0.1&5.1	/	-2&-4&6&25&40	1.5%&0.7%&1.9%&1.3%&0.2%	0.3&0.0&3.0&2.2&0.5
CCOC(=O)c1cc2c(=O)n3ccccc3nc2n(CCCOC)c1=NC(=O)c1c(-c2c(F)cccc2Cl)noc1C	/	/	/	-15	4.2%	0.7
O=C(O)/C=C/c1nc(-c2ccccc2)n2ccccc12	-17%	6.7	?	-9	32µM*	-0.2

Just TRPML1 blocker (2 entries from above):
molecule | TRPML1 blocker
CCOc1ccccc1NC(=O)CCNS(=O)(=O)c1cccc2nonc12 | -9&2
Cc1nn(S(=O)(=O)c2ccccc2)c(C)c1Sc1ccc([N+](=O)[O-])cc1 | -8

As entered above:
CC(C)OC(=O)C(C#N)c1nc2ccccc2nc1N1CCN(Cc2ccccc2)CC1 (configuration not stated) – gsp antagonist = 4%
COCCN=C1Sc2nc3ccc(C)cc3cc2CN1Cc1cccs1 – TRPML1 blocker = 5
COCCCC/C(=N\OCCN)c1ccc(C(F)(F)F)cc1 – TRPML1 blocker = -2&-4&6&25&40

(more compounds)
SMILES	gsp antagonist	Menin MLL FP FL	gsp agonist	TRPML1 blocker	ClpP mod	TRPML1 agonist
O=C(CSc1ccc2nnc(-c3ccccn3)n2n1)Nc1cccc(F)c1	6%	/	79%	?	-2.9%	1.0
Cc1ccc2c(c1)Oc1ccc(NC(=O)CCl)cc1C(=O)N2	14%	-2.3	33%	3	/	-0.9
O=C(COC(=O)CNC(=O)c1ccco1)Nc1ncc(Cl)cc1Cl	-1%	/	-2%	-1	-8.6%	0.7
COc1ccccc1C(=O)COC(=O)c1cccc(-n2cnnn2)c1	-5%	/	4%	12	-2.4%	-1.5
Clc1ccc2c(c1)[C@H]1OCC[C@H]1[C@@H](c1ccco1)N2	19%	-7.0	13%	-6	4.4%	0.7
O=C(NC(=S)Nc1ccccc1Br)C1CCCC1	-9%	/	?	-3	0.2%	-0.1
CC1CCN(C(=O)CSc2nnc(Cc3cc(=O)[nH]c(=O)[nH]3)n2-c2ccc(Cl)cc2)CC1	10%	?	-28%	-11	-0.2%&-0.9%	0.3&0.3
CCNC(=O)CN(CCc1ccccc1)S(C)(=O)=O	3%	-0.5	?	-8	-0.6%	-0.8
CC(=O)N1CCN(S(=O)(=O)c2cccc(C(=O)Nc3cc(C(F)(F)F)ccc3N3CCOCC3)c2)CC1	10%	/	-2%[15.4 µM]	-4	3.1%	1.6
CC(C)(C)OC(=O)N(CCc1ccccc1)Cc1ccc(OCc2cccc(NC(=O)/C=C/c3ccccc3)c2)cc1	8%	/	/	-9	-13%	0.7
O=C1[C@H]2[C@@H](C(=O)N1c1cccc3ccccc13)C1(C(=O)c3ccccc3C1=O)N1CCC[C@@H]21	-6%	?	-24%	15	-0.7%	1.0
CCCCN1C[C@H](c2ccc(OC)cc2)[C@@H](CC(=O)Nc2ccc(OC)cc2)C1=O	/	/	2%	3	-2.2%	-0.7
CCNC(=O)COC(=O)CCC(=O)c1ccc(F)cc1	2%	5.9	-10%	-2	1.2%	0.3
CCCCCCOC(=O)c1ccc(NC(=O)c2cc(OC)c(OC)c(OC)c2Br)cc1	-23%	1.7	16%	10	-2.6%	0.7
CCSc1cnnc2ccccc12	6%	/	18%	-5	/	-0.8
CC(=O)Nc1ccc(NC(=O)CSc2nnc(NC(=O)C3CC(=O)N(c4ccc(F)cc4)C3)s2)cc1 (configuration not stated)	7%	/	-2%[15.4 µM]	-3	0.8%	0.5
O=C(CN1C(=O)CSc2ncccc21)Nc1cccc(Cl)c1	-2%	-3.6	-210%[inhibitor]	0	-7.2%	-0.6
O=c1nc2s/c(=C\c3ccco3)c(=O)n2nc1Cc1ccc(F)cc1	-7%	17	-17%	-4	1.6%	-1.0
COCCCNC(=S)N/N=C/c1ccc(N(C)C)cc1	/	-0.7	10%[15.4 µM]	9	/	-0.2
CC(C)(C)c1ccc(/C=C/C(=O)O)s1	-19%	0.0	-117%[inhibitor]	-27	-1.5%	0.6
CCN1C(=O)c2cccc3c(S(=O)(=O)N(C(=O)c4cccnc4)c4ccc(OC)cc4)ccc1c23	-11%	-1.2	20%	-3	35µM*	1.5
COc1ccccc1-c1noc(-c2ccc(NCc3ccccc3)c([N+](=O)[O-])c2)n1	/	/	/	5	0.1%	0.4
O=C(CN1CCCC1)N1c2ccccc2Sc2ccc(Cl)cc21	-5%	-4.3	3%	12	0.8%	-0.1
CCN(CC)C(=O)C(C)OC(=O)COc1ccc(Cl)cc1C (configuration not stated)	-19%	0.9	7%	1	-0.5%	0.3
CC(C)CCNC(=O)C1CCC(Cn2c(=O)c3sccc3n(CC(=O)NC(C)C)c2=O)CC1 (configuration not stated)	/	/	/	34	2.6%	1.3
Cc1ccc(-c2cc(NC(=O)CSc3n[nH]c(N)n3)n(-c3ccccc3)n2)cc1	?	3.5	-22%	33	-1.3%	0.8
O=[N+]([O-])c1ccc(-c2nnc(CNC3CCCC3)o2)cc1	-5%	-8.2	-2%[15.4 µM]	5	/	-0.7
CCCOc1ccccc1N/C(N)=N/c1nc(C)cc(C)n1	6%	-8.6	-10%[15.4 µM]	13	/	2.1
O=C(CCSc1ccccc1)NC(=O)COC(=O)C1CCCCC1	8%	-1.4	-40%[inhibitor]	-5	-4.7%	0.2
CC1CN(S(=O)(=O)c2ccc(C(=O)Nc3nncs3)cc2)CC(C)O1 (configuration not stated)	1%	/	10%	14	-1.2%	0.8

Ordered by value in Menin MLL FP FL (smallest number first): 6 of the compounds above.
mol | Menin MLL FP FL
COCCN=C1Sc2nc3ccc(C)cc3cc2CN1Cc1cccs1 | 0.3
CCN(CC)C(=O)C(C)OC(=O)COc1ccc(Cl)cc1C (configuration not stated) | 0.9
CCCCCCOC(=O)c1ccc(NC(=O)c2cc(OC)c(OC)c(OC)c2Br)cc1 | 1.7
CCCC(CCC)C(=O)NCCN1CCOCC1 | 1.8
CCOc1ccccc1NC(=O)CCNS(=O)(=O)c1cccc2nonc12 | 3.3
O=c1nc2s/c(=C\c3ccco3)c(=O)n2nc1Cc1ccc(F)cc1 | 17
